Assay outcomes (PubChem BioAssay)
UCH37 inh – inhibitors of human UCH37 deubiquitinase, primary screen, biochemical, Ub-AMC cleavage, fluorescence | purified proteasome/UCH37 | inhibition, % (no concentration beside the values) | 330,000 tested, 0.33% active | AID 588478, 2011;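 active = mean of two replicates above 20%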;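 also: 0% = compound-free wells with enzyme and 100% = wells lacking proteasome; stock transfer was 100 nL into about 20 µL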
Target sequence (Q9Y5K5 whole entry, looked up): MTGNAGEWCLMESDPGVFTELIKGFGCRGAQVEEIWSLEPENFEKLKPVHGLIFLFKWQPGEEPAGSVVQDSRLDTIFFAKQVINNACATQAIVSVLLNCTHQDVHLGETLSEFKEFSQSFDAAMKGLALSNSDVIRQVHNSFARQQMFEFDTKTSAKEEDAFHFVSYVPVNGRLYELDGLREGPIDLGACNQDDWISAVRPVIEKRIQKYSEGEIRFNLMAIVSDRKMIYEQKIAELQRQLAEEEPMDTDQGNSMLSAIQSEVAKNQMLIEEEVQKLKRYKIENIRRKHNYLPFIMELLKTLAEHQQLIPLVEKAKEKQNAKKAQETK
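Material: human UCH37 enzyme supplied as purified proteasome complex / Amount: 0.15 nM proteasome as dispensed / Buffer or medium: pH 7.4 Tris-HCl (50 mM) with ovalbumin, ATP-MgCl2, DTT / Times: preincubation 30 min, reaction 25 min, room temperature / Technique: AMC fluorescence from Ub-AMC cleavage, excitation 355 nm, emission 460 nm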
E coli growth – E. coli growth inhibition, primary screen, OD600 | Escherichia coli growth, 23 h; stronger effect = lower value | OD600 absorbance (test concentration not listed) | 330,000 tested, 0.21% active;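 active = OD600 absorbance below the run mean of sample wells minus 3.6 SD, in any replicate, cut at about 0.56 in these data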;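 also: stock transfer was 300 nL into about 60 µL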
* = called active by the depositor.

SMILES	UCH37 inh	E coli growth
CC(=O)Nc1cccc(C(C)=NNC(=S)NC(C)C)c1	2.2	0.69
COc1cccc(C=NNC(=O)C[n+]2ccccc2)c1O	0.9	0.72
O=C(O)COc1ccccc1C=NNC(=O)COc1ccc(-c2ccccc2)cc1	6.3	0.71
COc1cc(C=Nn2cnc3scc(-c4cccs4)c3c2=O)cc(OC)c1OC	3.1	0.74
CC(C)c1ccc(C=Nn2nnnc2Nc2ccccc2)cc1	-0.5	0.74
CCCOc1ccc(CC(=O)NN=Cc2ccc(F)cc2)cc1	1.8	0.63
CCc1nnc(NN=Cc2ccc(OC(C)=O)c(OC)c2)n1N	5.1	0.66
Cc1ccc(C=Nn2c(-c3ccncc3)n[nH]c2=S)cc1	0.6	0.71
COc1cccc(C=Nn2c(C)nnc2C)c1OC	-6.9	0.67
Cc1cc(C(=O)NN=Cc2ccc(C)o2)c2ccccc2n1	8.8	0.67
CC1CC(=NNC(=O)c2ccc([N+](=O)[O-])cc2)CC(C)(C)C1 (centres undefined)	0.9	0.69
CC(=NNC(N)=S)c1ccccc1[N+](=O)[O-]	5.1	0.71
COC(=O)c1ccc(COc2ccccc2C=NNC(N)=O)o1	0.9	0.65
COc1ccc(NC(=O)ON=Cc2ccccc2)cc1	2.5	0.65
O=C(CC=NOCc1ccc([N+](=O)[O-])cc1)Nc1ccc(Br)cc1	0.3	0.63

Entries from the list above that contain a halogen:
SMILES	UCH37 inh	E coli growth
CCCOc1ccc(CC(=O)NN=Cc2ccc(F)cc2)cc1	1.8	0.63
O=C(CC=NOCc1ccc([N+](=O)[O-])cc1)Nc1ccc(Br)cc1	0.3	0.63

Next section.
SMILES	UCH37 inh	E coli growth
CCCCCCC1CC(C(C)=NNC(N)=O)OC1=O (centres undefined)	2.1	0.66
CN(C)c1ccc(C=NNC(=O)c2cccc3cc[nH]c23)cc1	-78	0.66
CC(=NNC(=O)CNC(=O)c1ccco1)c1ccc(Br)cc1	1.7	0.69
O=C(O)c1cc(NN=Cc2ccc(N3CCOCC3)s2)ccc1Cl	13	0.69
COc1cc(C=NO)cc(Br)c1OCC(=O)NCc1ccccc1	2.3	0.66
S=C(NCCc1ccccc1)NN=CC1CCCCC1	1.3	0.68
Cc1cc(-c2n[nH]c(=S)n2N=C/C=C/c2ccccc2)n[nH]1	7.5	0.69
C/C(C=NNC(=O)c1ccc(Br)cc1)=C\c1ccccc1	-4.7	0.71
COc1cc(C=Nn2c(SC)nnc(C(C)(C)C)c2=O)ccc1O	35*	0.67
CC(O)COc1ccc(C(=NO)c2ccccc2)cc1 (centres undefined)	1.0	0.64
CC(C)(C)C1CCc2c(C(=O)NN=Cc3cccs3)csc2C1 (centres undefined)	5.7	0.66
COc1ccccc1NC(=S)NN=Cc1ccc(O)cc1	2.4	0.69
COc1ccc(C=Nc2nc3ccccc3n2CCN2CCCCC2)cc1OC	4.5	0.68
COc1cc(C=NNc2snc(SC)c2C#N)cc(OC)c1OC	-27	0.73
CON=CC1CCN(c2ncc(C(F)(F)F)cc2Cl)C1=O (centres undefined)	3.6	0.71
C=C(C)CNC(=S)NN=Cc1ccccc1OCC(=O)O	7.4	0.73
COc1ccc(C(=O)Nc2ccccc2C(=O)NN=Cc2ccncc2)cc1OC	-0.7	0.71
COc1cc(C=NNc2nc(-c3ccc(C)cc3)c(NC(C)=O)s2)ccc1O	-31	0.7
CN(C)C=NNC(=O)c1ccc(Cl)cc1	3.5	0.69
O=C(NN=Cc1ccc(-c2ccc(Cl)c(C(=O)O)c2)o1)c1cc2c(ccc3ccccc32)o1	-208	0.66
CCOc1ccc(C=NN2CCN(Cc3ccccc3)CC2)cc1	5.0	0.64
CCc1ccc(OCC(=O)NN=C(C)c2ccc(-n3ccnc3)cc2)cc1	4.4	0.69
CCOc1cc(C=NNC(=O)COc2cccc(C)c2)ccc1OC(=O)c1cccs1	-9.5	0.72
COc1cccc(C=NNC(=O)c2nc(-c3ccccc3)cc(-c3ccccc3)n2)c1O	5.1	0.75
CCN1C(=NN)c2cccc3cccc1c23	6.3	0.7
O=C(CN1CCN(Cc2ccccc2Cl)CC1)NN=C/C=C/c1ccccc1[N+](=O)[O-]	7.8	0.7
Cc1ccc2nc(SCC(=O)NN=Cc3ccc(C(=O)O)cc3)cc(C)c2c1	0.8	0.67
Oc1ccc(C(Cc2ccc3ccccc3n2)=NNc2ccccc2)c(O)c1	11	0.67
Cc1ccc(C)c(S(=O)(=O)NN=Cc2ccc(C(=O)O)cc2)c1	5.8	0.61
N#CC(=NNc1ccc(Cl)cc1)C(N)=S	9.8	0.45*
O=C(NC(Cc1c[nH]c2ccccc12)C(=O)NN=Cc1ccc(Cl)cc1)c1cccs1 (centres undefined)	-1.0	0.68
CC(C)(C)c1ccc(C=Nn2cnnc2)cc1	0.3	0.72
CC(=NNC(=O)c1ccc(Cl)c(S(=O)(=O)Nc2ccccc2Cl)c1)c1ccncc1	3.0	0.64
O=C(NN=Cc1cc2cc3c(cc2nc1Cl)OCCO3)c1ccccc1O	-58	0.74
COc1ccc(C=NNC(=O)C(=O)Nc2ccccn2)cc1OC	2.9	0.69
COCCN=c1scc(-c2cccs2)n1N=C(C)c1ccco1	7.6	0.68
CC(=NNC(=O)CSc1nc2nc(C)cc(C)n2n1)c1ccccc1	5.8	0.73
CCOc1cc(C=NO)ccc1OS(=O)(=O)c1ccc(C)cc1	-0.7	0.69
O=[N+]([O-])c1ccc(C=NN2CCN(Cc3ccccc3)CC2)cc1	4.1	0.65
COc1ccc(C=NNC(=O)CN(C2=NS(=O)(=O)c3ccccc32)c2ccccc2)cc1	4.1	0.71
CC(=NNC(=O)Cc1c(C)[nH][nH]c1=O)c1cccc(Br)c1	1.3	0.7
O=C(NN=Cc1cccc(Oc2ccccc2)c1)c1cccc(Br)c1	5.0	0.72
CCOC(=O)NN=C(c1ccccc1)C(O)c1ccccc1 (centres undefined)	1.2	0.72
CCn1c(C)nc2cc(C(=O)NN=Cc3ccc(N4CCOCC4)cc3)ccc21	-15	0.7
O=C(NN=Cc1ccc([N+](=O)[O-])o1)c1cccc(S(=O)(=O)N2CCOCC2)c1	11	0.67
CCN(CC)c1ccc(C=NNc2nc(C)cc(C)n2)cc1	12	0.7
CC(=O)Nc1sc(NN=Cc2cccc(Cl)c2)nc1-c1cccs1	-34	0.7
CC(Oc1ccc(F)cc1)c1ccnc2nc(N=CN(C)C)nn12 (centres undefined)	-94	0.68
Cc1oc(N=Cc2ccc(Cl)cc2Cl)c(C#N)c1C	-1.8	0.68
Cc1ccc(-c2cc(C(=O)NN=Cc3c(C)nn(C)c3C)c3ccccc3n2)c(C)c1	0.5	0.72
COCc1c(Br)c(C)nc(OCC(=O)NN=Cc2ccc(C)o2)c1C#N	3.4	0.72
CCCOc1ccc(Br)cc1C=NO	3.3	0.69
CCOC(=O)C1Oc2ccccc2C(c2ccoc2)=C1C(=O)OC (centres undefined)	3.8	0.74
CCOC(=O)C1=C(c2ccccc2)N=c2sc(=Cc3cccc(O)c3)c(=O)n2C1c1cccs1 (centres undefined)	0.3	0.69
CC(=NNC(=O)c1ccc(N2CCCC2=O)cc1)c1ccncc1	2.7	0.7
CCCCCC(=O)NN=Cc1ccc([N+](=O)[O-])o1	11	0.58
CC(=NNC(=O)c1ccc(CN2CCOCC2)cc1)c1cccc([N+](=O)[O-])c1	-4.3	0.67
O=[N+]([O-])c1cc2c(cc1C=NNS(=O)(=O)c1ccc(Br)cc1)OCO2	3.3	0.66
CC(=NNC(=O)Cc1ccccc1)c1cccs1	3.4	0.58
COc1cc(C=NNC(=O)c2ccc(-c3ccccc3)cc2)cc(Br)c1O	-4.4	0.66
Next part:
SMILES	UCH37 inh	E coli growth
CCN(CC)S(=O)(=O)c1ccc(NN=Cc2ccc(OC)c(OC)c2OC)nc1	3.1	0.74
Cc1nn(-c2ccccc2)c(C)c1C=NNC(=O)c1cc(-c2cccs2)[nH]n1	2.9	0.6
Cc1ccc(C(=O)Nc2ccc(C(=O)NN=Cc3ccc(C)o3)cc2)cc1	-12	0.71
Cc1ccccc1C(=O)Nc1ccccc1C(=O)NN=Cc1ccco1	3.4	0.71
Cc1cc(C=NNC(N)=O)c(C)c(CO)c1	-0.1	0.64
COc1cccc(C=NNC(=O)Cn2cnc3c2c(=O)n(C)c(=O)n3C)c1OC	-6.0	0.66
CCOC(=O)Nc1ccc2c(CN3C(=O)NC4(CCCC4)C3=O)cc(=O)oc2c1	-198	0.73
CCOc1cccc(C=NN=Cc2cccc(OCC)c2O)c1O	9.6	0.68
CCOC(=O)C(=O)NN=C(c1ccccc1)c1ccc(OC)cc1	2.5	0.66
O=C(NN=C1CC(c2ccccc2)Oc2ccccc21)c1ccccn1 (centres undefined)	-24	0.71
Cc1ccccc1OCc1nc2ccccc2c(=O)n1N=Cc1cn[nH]c1-c1ccccc1	7.0	0.7
COc1cc(OC)c(C=Nn2c(C)nnc2C)c(OC)c1	-0.2	0.7
CC(=NNC(=O)CNC(=O)c1cccnc1)c1ccccc1	1.9	0.65
CC(=O)c1sc(NN=Cc2ccccc2O)nc1C	-2.9	0.62
CC(=NNC(=O)c1cc(C)[nH]n1)C(C)(C)C	4.3	0.73
O=c1c2ccccc2nc(COc2ccccc2)n1N=Cc1ccc(O)c(O)c1	5.8	0.71
Cc1ccc(-c2nc(NN=Cc3cccc([N+](=O)[O-])c3)c3ccccc3n2)cc1	6.1	0.7
Cc1cc(C(=O)NN=Cc2cccn2C)n[nH]1	8.9	0.7
O=C(Cc1ccccc1)NCC(=O)NN=Cc1cccnc1	1.6	0.65
O=C(CN1CCCCCC1)NN=Cc1ccc(Cl)c(Cl)c1	7.8	0.7
COCCn1cnc2c(c1=O)c1nc3ccccc3nc1n2N=Cc1ccco1	1.9	0.65
COc1cccc(C2/C(=C(/O)c3ccccc3)C(=O)C(=O)N2CCCC(=O)O)c1 (centres undefined)	2.0	0.7
Cc1cc(O)c(C=NOCc2ccc(Cl)cc2Cl)c(=O)o1	2.1	0.69
CC(=NNC(=O)Cc1c[nH]c2ccccc12)c1ccc2ccccc2c1	-2.7	0.72
S=c1[nH]nc(C2CCCCC2)n1N=Cc1ccccn1	2.6	0.65
Cc1cc(C)c(C=NNC(=O)c2nnn(-c3nonc3N)c2CN2CCC(C)CC2)c(C)c1	5.6	0.67
COc1cc(C=NNC(=S)NCCN2CCOCC2)cc(OC)c1O	-24	0.69
NC(Cc1ccc([N+](=O)[O-])cc1)=NOC(=O)c1ccc([N+](=O)[O-])cc1	-3.8	0.75
CC1(C)Cc2ccccc2C(NN=Cc2cccc(F)c2)=N1	4.1	0.69
CC(C)c1c(C(=O)NN=Cc2cccs2)nnn1-c1nonc1N	10	0.68
COc1ccc(C(=O)NN=C(C)CC(=O)Nc2ccc3ccccc3c2)c(OC)c1	1.1	0.72
ON=Cc1ccc(OCc2ccccc2)c(Br)c1	1.1	0.64
CCOc1ccc(-c2c(C(=O)NN=Cc3ccc(OC(C)C)cc3)nnn2-c2nonc2N)cc1	-11	0.74
COc1ccc(C=NNC(=O)c2nn(-c3ccc(C)c(C)c3)c(=O)c3ccccc23)cc1	-2.9	0.81
S=C(NCCN1CCOCC1)NN=Cc1c2ccccc2cc2ccccc12	-2.4	0.71
Cc1onc(-c2ccccc2)c1C(=O)NN=Cc1c(F)cccc1Cl	-0.5	0.69
Cc1ccc(C(=O)ON=C(N)c2cccc([N+](=O)[O-])c2)cc1	1.1	0.71
COc1ccc(Cc2nc3ccccc3n2CC(=O)NN=Cc2ccc(O)cc2)cc1OC	5.9	0.74
CC1(C)CC(NC(=O)C23CCC(C)(C(=NO)C2)C3(C)C)CC(C)(C)N1 (centres undefined)	4.1	0.69
O=C(Cc1ccc(Cl)cc1)NN=Cc1c(Cl)cccc1Cl	5.7	0.75
CCC(=NNC(N)=O)c1ccc(OC)c(OC)c1	3.8	0.7
CCOC(=O)C(=NNc1ccccc1[N+](=O)[O-])c1csc(N)n1	5.1	0.64
CC(=NNc1nc(C)cc(=O)[nH]1)C1CC1	-1.0	0.69

Structural class, the entries above with a furan ring, fused or not
SMILES	UCH37 inh	E coli growth
Cc1cc(C(=O)NN=Cc2ccc(C)o2)c2ccccc2n1	8.8	0.67
COC(=O)c1ccc(COc2ccccc2C=NNC(N)=O)o1	0.9	0.65
CC(=NNC(=O)CNC(=O)c1ccco1)c1ccc(Br)cc1	1.7	0.69
O=C(NN=Cc1ccc(-c2ccc(Cl)c(C(=O)O)c2)o1)c1cc2c(ccc3ccccc32)o1	-208	0.66
COCCN=c1scc(-c2cccs2)n1N=C(C)c1ccco1	7.6	0.68
O=C(NN=Cc1ccc([N+](=O)[O-])o1)c1cccc(S(=O)(=O)N2CCOCC2)c1	11	0.67
Cc1oc(N=Cc2ccc(Cl)cc2Cl)c(C#N)c1C	-1.8	0.68
COCc1c(Br)c(C)nc(OCC(=O)NN=Cc2ccc(C)o2)c1C#N	3.4	0.72
CCOC(=O)C1Oc2ccccc2C(c2ccoc2)=C1C(=O)OC (centres undefined)	3.8	0.74
CCCCCC(=O)NN=Cc1ccc([N+](=O)[O-])o1	11	0.58
Cc1ccc(C(=O)Nc2ccc(C(=O)NN=Cc3ccc(C)o3)cc2)cc1	-12	0.71
Cc1ccccc1C(=O)Nc1ccccc1C(=O)NN=Cc1ccco1	3.4	0.71
COCCn1cnc2c(c1=O)c1nc3ccccc3nc1n2N=Cc1ccco1	1.9	0.65

An excerpt; rates above refer to the full screens.
